KCNQ2 pot: enhances the rat KCNQ2 potassium channel. 0.54% of 310,000 active. AID 2239. O88943. CHO-K1 KCNQ2, FluxOR thallium flux fluorescence; stronger effect = higher value. B-score at 10 µM;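 active = fluorescence ratio B-score at least 3 SD of library B-scores, with initial fluorescence B-score within 3 SD, cut at about 5.3 in these data; same plate scores as AID 2156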;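 also: B-score of peak minus minimum over baseline fluorescence ratio after K+ and Tl+ stimulus; positive B-score means potentiation of KCNQ2 with more thallium influx and brighter signal; only the inactives scoring about 0 or higher are listed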
Target sequence (O88943 whole entry, looked up): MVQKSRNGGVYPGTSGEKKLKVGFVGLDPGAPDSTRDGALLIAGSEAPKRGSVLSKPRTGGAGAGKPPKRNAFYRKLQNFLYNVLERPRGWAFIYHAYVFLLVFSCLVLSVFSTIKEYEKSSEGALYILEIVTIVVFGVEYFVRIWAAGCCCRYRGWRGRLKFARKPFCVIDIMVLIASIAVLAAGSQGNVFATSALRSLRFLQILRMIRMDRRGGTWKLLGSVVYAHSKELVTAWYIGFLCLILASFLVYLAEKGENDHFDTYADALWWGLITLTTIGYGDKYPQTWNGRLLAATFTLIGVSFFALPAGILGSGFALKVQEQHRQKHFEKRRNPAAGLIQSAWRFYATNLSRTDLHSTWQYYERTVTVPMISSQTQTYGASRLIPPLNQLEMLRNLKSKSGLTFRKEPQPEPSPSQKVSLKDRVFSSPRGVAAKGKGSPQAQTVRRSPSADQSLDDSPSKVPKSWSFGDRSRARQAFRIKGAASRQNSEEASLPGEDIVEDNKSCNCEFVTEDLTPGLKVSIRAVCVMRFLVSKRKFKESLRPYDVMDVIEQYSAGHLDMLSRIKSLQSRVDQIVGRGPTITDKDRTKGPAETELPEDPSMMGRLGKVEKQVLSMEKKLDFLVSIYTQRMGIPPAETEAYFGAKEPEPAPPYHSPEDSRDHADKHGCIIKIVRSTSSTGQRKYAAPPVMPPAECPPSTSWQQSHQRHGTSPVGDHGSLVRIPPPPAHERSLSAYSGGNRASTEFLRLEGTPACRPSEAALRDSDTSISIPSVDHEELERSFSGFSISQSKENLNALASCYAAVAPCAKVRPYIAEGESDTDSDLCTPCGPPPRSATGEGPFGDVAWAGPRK
KCNQ2 pot baseline: further read-out of KCNQ2 pot, marked with its call; B-score; compound at 10 µM; measured here: initial fluorescence intensity artifact check;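 brightness before thallium and not channel activity; 0 = typical well and far values either way flag optical interference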
Starred values were filed as active, the others as inactive.

Sample of the layout, 6 compounds:
SMILES	KCNQ2 pot	KCNQ2 pot baseline
O=C(C[n+]1cccc(CNC(=O)c2ccc(OC(F)F)cc2)c1)Nc1ccc(F)cc1	1.6	0.13
Cc1cc(NC(=O)c2ccccc2F)nc2c1c(=O)oc1ccccc12	0.1	-1.3
O=S(=O)(NC1=NCCCCC1)c1ccccc1Cl	0.82	-0.29
Cc1ccc(N=C2NC(=O)/C(=C/c3cccn3C)S2)c(C)c1	0.88	1.1
Cc1ccc(-c2csc3nc4cc(C(=O)NC5CCC(O)CC5)ccc4c(=O)n23)cc1 (stereo not drawn)	0.97	0.03
CCCCN1CCc2c1nc1ccc(Br)cc1c2N	0.03	-2.7

The whole of this part, from the first entry:
SMILES	KCNQ2 pot	KCNQ2 pot baseline
O=C(C[n+]1cccc(CNC(=O)c2ccc(OC(F)F)cc2)c1)Nc1ccc(F)cc1	1.6	0.13
Cc1cc(NC(=O)c2ccccc2F)nc2c1c(=O)oc1ccccc12	0.1	-1.3
O=S(=O)(NC1=NCCCCC1)c1ccccc1Cl	0.82	-0.29
Cc1ccc(N=C2NC(=O)/C(=C/c3cccn3C)S2)c(C)c1	0.88	1.1
Cc1ccc(-c2csc3nc4cc(C(=O)NC5CCC(O)CC5)ccc4c(=O)n23)cc1 (stereo not drawn)	0.97	0.03
CCCCN1CCc2c1nc1ccc(Br)cc1c2N	0.03	-2.7
N#CCCN(CCC#N)c1nncs1	0.06	1.1
CCN(C(=O)COC(=O)Cn1cnc2c1c(=O)n(C)c(=O)n2C)C1CCS(=O)(=O)C1 (stereo not drawn)	0.07	-1.8
CCC(=O)Nc1ccc(N2CCCCC2)c(C(=O)Nc2ccccc2C)c1	1.3	0.62
Oc1ccc(Br)cc1-c1cc(-c2ccc(Cl)cc2)n[nH]1	0.59	0.9
CCN(CC)CCN(C(=O)C1=COCCO1)c1nc2c(OC)ccc(OC)c2s1	0.22	-0.73
Cc1ccc(S(=O)(=O)/N=S(\C)C(C)C)cc1 (stereo not drawn)	1.6	-0.42
CC(C)(CC(=O)O)CC(=O)O	0.11	-0.47
COc1ccc(NC(=O)CN2C(=O)C(C)Oc3ccccc32)cc1 (stereo not drawn)	0.69	1.2
C=CCOc1c(Br)cc(CNn2cn[nH]c2=S)cc1OC	0.61	0.04
C=CCC1NCCc2c(Br)cccc21 (stereo not drawn)	0.38	-0.63
COc1cccc(C(=O)C2CCCN(Cc3cn(CC(N)=O)c4ccccc34)C2)c1 (stereo not drawn)	1.3	0.16
CCCC(=O)NCCc1cc(OC)c(OC)cc1Br	0.57	1.6
CC(=O)c1ccc(OCC(=O)Nc2ccc3nc(C)sc3c2)cc1	1.6	-0.13
O=C(NC1(C(F)(F)F)NC(=O)N(Cc2cccnc2)C1=O)c1ccc(F)cc1 (stereo not drawn)	0.14	0.87
Cc1ccc(-c2cc(C(=O)N/N=C/c3c[nH]c4ccccc34)[nH]n2)cc1	0.94	-0.39
COc1ccc(N(CC(=O)N2CCC(C)CC2)S(=O)(=O)c2c(C)nn(C)c2C)cc1	0.19	1.6
O=C(Nc1ccc(S(=O)(=O)N2CCCC2)cc1Cl)C1=COCCO1	0.02	-0.11
Cc1nc(C(=O)N2CCCC(N3CCN(c4ccccc4C)CC3)C2)cs1 (stereo not drawn)	0.79	1.8
CN(C)c1cc[n+](CC(=O)c2ccc(OC(F)F)cc2)cc1	0.02	1.7
Going on with the list.
SMILES	KCNQ2 pot	KCNQ2 pot baseline
COc1ccnc(N=CNOCc2cccc(Cl)c2Cl)c1C#N	0.76	-0.66
COc1ccc(-c2nn(-c3ccccc3)cc2/C=N/NS(=O)(=O)c2ccccc2)cc1	0.09	-0.63
CC(=O)N1CCN(C(C)=O)C1c1ccccc1	0.63	0.05
CNC(=O)CSc1nc2c(c(=O)n(C)c(=O)n2C)n1Cc1ccc(C)cc1	0.73	0.75
Cc1nnc(NC(=O)CSc2nnc(CNC(=O)c3ccc(S(=O)(=O)N(C)C)cc3)o2)s1	0.94	-1
CC(COc1ccccc1Cc1ccccc1)N1CCCCC1 (stereo not drawn)	0.23	0.38
O=[N+]([O-])c1ccc(N2CCCCC2)cc1N1CCOCC1	0.47	-0.08
O=C(CNC(=O)c1ccco1)OCC(=O)c1ccc(Cl)cc1Cl	0.49	0.67
O=C(NC(=S)N1CCc2ccccc21)c1ccc(Br)o1	9.8*	1.6*
COc1ccc(/C=C/c2nc3sc4c(c3c(=O)o2)CCC4)cc1	0.64	-0.37
CC(C)C(=O)N1CCC2(CC1)Oc1ccc(Cl)cc1C(=O)C21CC(c2ccccc2)=NO1 (stereo not drawn)	0.21	0.45
CC(=O)c1cc(C)ccc1OC(=O)c1ccco1	0.25	0.64
Cc1onc(-c2ccccc2)c1C(=O)N/N=C/c1c(F)cccc1Cl	1.1	-0.71
COc1ccc(C(C)=O)cc1COC(=O)c1cc(C)nc2ccccc12	2	-0.06
CCOC(=O)CNC(=O)CSc1nc2cccnc2n1C1CCCCC1	1.2	0.36
NC(=O)Cn1cnc(-c2ccccc2)c1	1.8	0.05
COc1cc(C(=O)N2CCC(NC(=O)C(Cc3ccccc3C)NC(C)=O)CC2)cc(OC)c1OC (stereo not drawn)	0.23	-0.09
CCC1CCCCN1CCCNC(=O)c1ccc(N2CCOCC2)c(NS(=O)(=O)c2ccc(OC)cc2)c1 (stereo not drawn)	0.83	1.8
COc1ccc(CNC(=O)CSc2nnc(C)s2)cc1	1.9	-0.15
Cc1ccc(CCN2CC(C(=O)O)CC2=O)cc1 (stereo not drawn)	0.01	0.23
Clc1ccc(Cn2ncc3c(N4CCOCC4)ncnc32)cc1	0.54	-0.47
CCN(CC)S(=O)(=O)c1ccc(C(=O)NCc2n[nH]c(=S)n2-c2ccccc2OC)cc1	1.6	-0.14
CCOc1ccccc1-n1nnnc1SCC(=O)NC(=O)Nc1ccc2c(c1)OCCO2	0.41	0.5
COc1cc(/C=N\Nc2cc(=O)n(C)c(=O)n2C)ccc1O	1.1	-0.04
CC(Oc1cc2oc(=O)c3c(c2cc1Cl)CCC3)C(=O)NC1CC(C)(C)NC(C)(C)C1 (stereo not drawn)	0.21	-0.63

2 entries picked at random from those above, as already listed:
SMILES	KCNQ2 pot	KCNQ2 pot baseline
CC(=O)c1cc(C)ccc1OC(=O)c1ccco1	0.25	0.64
CC(C)C(=O)N1CCC2(CC1)Oc1ccc(Cl)cc1C(=O)C21CC(c2ccccc2)=NO1 (stereo not drawn)	0.21	0.45

(list continues)
SMILES	KCNQ2 pot	KCNQ2 pot baseline
COc1ccc(NC(=O)N/C=C/c2ccc(Cl)cc2)cc1	0.45	-0.43
Cc1ccc(C)c(NC(NC(=O)c2ccccn2)C(Cl)(Cl)Cl)c1 (stereo not drawn)	1.2	-0.03
Nc1ccc2oc3ccc(N)cc3c(=O)c2c1	0.49	0.53
COc1ccc(S(=O)(=O)N2CC=C(C(=O)Nc3ccc(NC(C)=O)cc3)CC2)cc1	0.24	0.18
CCCOc1ccc(CNCCCOCC)cc1OC	0.08	0.07
N/C(CSc1ccc(Cl)cc1)=N\S(=O)(=O)c1ccc(Cl)cc1	0.99	-0.07
C=CCN1C(=O)/C(=c2\sc3nc(=O)c(Cc4ccccc4Cl)nn3c2=O)c2ccccc21	1.6	0.11
COc1ccc(-c2cc(C(=O)Nc3cc(Cl)ccc3OC)no2)cc1	0.64	-0.91
COC(=O)c1cc(S(=O)(=O)NCCCc2ccco2)c[nH]1	1	0.41
CCOC(=O)C1=C(Nc2ccc(OC)cc2)OCC1=O	0.03	-0.07
CCSc1nnc(-c2ccccc2N=Cc2c(C)[nH]n(-c3ccccc3)c2=O)c(=O)[nH]1	0.71	1.2
COc1ccc(OC)c(CN2CCN(c3ccccc3OC)CC2)c1	0.48	0.02
COc1ccc(S(=O)(=O)N(CC(=O)N2CCOCC2)c2ccc(F)cc2)cc1OC	0.84	-0.02
CCN(CC)C(=O)COc1c(-c2ccco2)oc2ccccc2c1=O	0.61	0.07
O=C(CSc1nc(=O)n2ccccc2n1)N1CCCCCC1	1.3	0.02
C=CCn1c(Cc2c(C)[nH]c3ccccc23)nnc1SCC(=O)NCc1ccc(F)cc1	0.7	-1.6
O=Cc1ccc(OCCCOc2cccc3cccnc23)cc1	1.2	-0.51
CCCCN1Cc2cc(C(=O)c3cc(OC)ccc3O)cnc2NC1=O	1.3	0.04
COC(=O)c1cc(NC(=O)c2ccco2)ccc1N1CCOCC1	1.6	-0.15
COc1ccc(C2C(C(=O)Nc3ccccc3OC)=C(C)Nc3ncnn32)cc1 (stereo not drawn)	1.1	0.44
COc1ccc(CCC(=O)OCC(=O)c2ccc(C)cc2)cc1	0.04	1.1
Cc1cccc(NC(=O)COC(=O)CCCC2=NS(=O)(=O)c3ccccc3N2)c1	0.05	1.2
C=CCON/C(CCC)=C1\C(=O)CC(C)(C)CC1=NC	0.03	0.61
Cc1cc(C)n(CCNS(=O)(=O)c2ccc(Cl)cc2)n1	0.37	0.87
CC(C(=O)Nc1nccs1)N1C(=O)C2CC=CCC2C1=O (stereo not drawn)	0.35	-1.2

7 compounds already listed, arranged by their value in KCNQ2 pot baseline, low to high.
canonical_smiles,KCNQ2 pot baseline
C=CCn1c(Cc2c(C)[nH]c3ccccc23)nnc1SCC(=O)NCc1ccc(F)cc1,-1.6
N/C(CSc1ccc(Cl)cc1)=N\S(=O)(=O)c1ccc(Cl)cc1,-0.07
COc1ccc(OC)c(CN2CCN(c3ccccc3OC)CC2)c1,0.02
CCCCN1Cc2cc(C(=O)c3cc(OC)ccc3O)cnc2NC1=O,0.04
CCN(CC)C(=O)COc1c(-c2ccco2)oc2ccccc2c1=O,0.07
COc1ccc(C2C(C(=O)Nc3ccccc3OC)=C(C)Nc3ncnn32)cc1 (stereo not drawn),0.44
Nc1ccc2oc3ccc(N)cc3c(=O)c2c1,0.53

More structures follow:
SMILES	KCNQ2 pot	KCNQ2 pot baseline
O=C(/C=C/c1cccs1)NC1CC1	0.87	-1.3
COc1ccccc1C(=O)NCCC(=O)Nc1nc2ccccc2[nH]1	0.18	-0.26
CC(C)(C)NC(=O)COc1ccc(CNn2nnnc2N)cc1	0.01	-0.13
Nc1ccccc1C(=O)NCc1ccc(F)cc1	1.6	-0.18
COc1ccc(S(=O)(=O)/N=C2/NC(=O)/C(=C\c3ccco3)S2)cc1	0.75	-0.26
CCOC(=O)C(=O)/C(=C\N(C)C)c1onc(-c2ccccc2)c1C(=O)OC	0.01	0.85
O=C(Cc1cccs1)Nc1nnc(SCc2cccc3ccccc23)s1	1.4	-0.94
COC(=O)c1cn(NC(=O)Cc2ccc(Cl)c(Cl)c2)c(=O)c2ccccc12	30*	-0.32*
CCN(Cc1ccccc1)C(=O)C1CCC(CNc2c(N3CCOCC3)c(=O)c2=O)CC1 (stereo not drawn)	0.65	-0.04
COc1cccc(C(=O)Oc2ccc3ccc(=O)oc3c2)c1	1.9	-0.03
CCOC(=O)NC(=O)CSc1nc(C)cc(C)c1C#N	0.1	0.45
CCC(=O)c1ccccc1OCCN1C(=O)NC(C)(C)C1=O	0.77	-0.45
COc1ccccc1N=Nc1ccc(N)c(C)c1	1.4	-0.26
CCOc1cc(/C=N/O)ccc1OCC(=O)Nc1cccc(C)c1	0.59	-0.31
C=CCOCC(O)CS(=O)(=O)Cc1ccc(Cl)cc1 (stereo not drawn)	1.3	-0.83
CC(NC(=O)CC12CC3CC(CC(C3)C1)C2)C(=O)O (stereo not drawn)	1.2	0.23
CCOC(=O)c1cccc(NC(=O)C2CCN(S(=O)(=O)c3cccs3)CC2)c1	1.5	-0.5
COc1ccc(-c2nnc(SC(C)C(=O)Nc3c(C)n(C)n(-c4ccccc4)c3=O)o2)cc1 (stereo not drawn)	0.82	-0.01
NS(=O)(=O)c1ccc(N/N=C2/CCCc3ccccc32)c([N+](=O)[O-])c1	1.2	-0.36
CCC(Sc1nc2cc(OC)c(OC)cc2c(=O)n1Cc1ccc(OC)cc1)C(=O)NCCOC (stereo not drawn)	0.1	-0.3
COc1ccc(O)c(-c2cc(-c3cccc(Br)c3)n[nH]2)c1	0.49	-0.03
CCOc1cccc(C(=O)Nc2ccc(N(CC)CC)cc2)c1	1.3	-0.15
CCOC(=O)N1CCN(Cc2cccs2)CC1	0.04	-0.54
COCCSc1nnc(NC(=O)CS(=O)(=O)c2ccc(C)cc2)s1	0.18	-0.54
CCCOc1ccc(/C=N/n2nnnc2N)cc1OC	0.07	-0.06
Additional structures:
SMILES	KCNQ2 pot	KCNQ2 pot baseline
Cc1cccc(CC(C)NC(=O)CCc2nnc(CCCCc3ccccc3)o2)n1 (stereo not drawn)	1.3	0.13
CCOC(=O)CSc1n[nH]c(=O)n1CCc1ccccc1	0.86	1.5
O=C(OCc1ccccc1F)c1cnc(Cl)c(Cl)c1	0.68	1.9
CC(=O)N1CCC(C(=O)N2CCN(S(=O)(=O)c3ccc(F)cc3)CC2)CC1	1.3	2.4
CN(Cc1nc2ccccc2[nH]1)Cc1nc(CC2CC2)no1	0.61	0.04
CC(=O)Nc1ccc(NS(=O)(=O)c2cccc3nonc23)cc1	0.18	-0.5
Cc1ccc(N=Cc2ccc(N(C)C)cc2)cc1C	0.58	0.02
CC1CCN(CCCNC(=O)c2cn(C)c3ccc(S(=O)(=O)N4CCCC4)cc3c2=O)CC1	0.47	0.64
COc1cc2ncnc(NCc3cc(F)ccc3F)c2cc1OC	1.3	0.15
CCOC(=O)C1CCN(C(=O)c2cc(S(=O)(=O)N(C)C)ccc2N2CCCC2)CC1	1.5	-2.1
CCN(CC)S(=O)(=O)c1ccc(/C=C/C(=O)OCC(=O)c2c(N)n(C)c(=O)n(C)c2=O)cc1	1.5	-1.4
Cc1ccc(NC(=O)CSCc2cc(=O)n3ccsc3n2)c(C)c1	0.05	-0.66
CC1Cc2cc(S(=O)(=O)CCC(=O)NCc3ccco3)ccc2N1C(=O)C1CC1 (stereo not drawn)	0.38	0.68
COc1cc2c(cc1NC(=O)C(C)OC(=O)c1ccc(S(=O)(=O)Nc3ccccc3Cl)cc1)oc1ccccc12 (stereo not drawn)	0.6	-2.3
Cc1nn(C)cc1C(N)=O	0.95	-0.49
COc1cccc(C(C(=O)NC2CCCC2)N(C(=O)c2ccco2)c2ccc(C(C)=O)cc2)c1OC (stereo not drawn)	1.1	0.31
Nc1nc2c(Cl)cc(Cl)cc2s1	0.89	0.05

Some of the compounds tested (hit frequency here may not be typical).
